# Compound activity as filed in PubChem.
# TRPV1 PAM = human TRPV1 potentiation; potentiation, % at 8.33 µM; TRPV1-expressing cells, Fluo-8 calcium influx, capsaicin EC20 potentiation; host cell line not named in the record; control for the full effect not named in the record; Q8NER1; 320,000 compounds, 0.02% hits; active means potentiation above 80%; inconclusive means 30% to 80%; inactive means below 30%; also: 0% is about no effect
# Target sequence (Q8NER1 whole entry, looked up): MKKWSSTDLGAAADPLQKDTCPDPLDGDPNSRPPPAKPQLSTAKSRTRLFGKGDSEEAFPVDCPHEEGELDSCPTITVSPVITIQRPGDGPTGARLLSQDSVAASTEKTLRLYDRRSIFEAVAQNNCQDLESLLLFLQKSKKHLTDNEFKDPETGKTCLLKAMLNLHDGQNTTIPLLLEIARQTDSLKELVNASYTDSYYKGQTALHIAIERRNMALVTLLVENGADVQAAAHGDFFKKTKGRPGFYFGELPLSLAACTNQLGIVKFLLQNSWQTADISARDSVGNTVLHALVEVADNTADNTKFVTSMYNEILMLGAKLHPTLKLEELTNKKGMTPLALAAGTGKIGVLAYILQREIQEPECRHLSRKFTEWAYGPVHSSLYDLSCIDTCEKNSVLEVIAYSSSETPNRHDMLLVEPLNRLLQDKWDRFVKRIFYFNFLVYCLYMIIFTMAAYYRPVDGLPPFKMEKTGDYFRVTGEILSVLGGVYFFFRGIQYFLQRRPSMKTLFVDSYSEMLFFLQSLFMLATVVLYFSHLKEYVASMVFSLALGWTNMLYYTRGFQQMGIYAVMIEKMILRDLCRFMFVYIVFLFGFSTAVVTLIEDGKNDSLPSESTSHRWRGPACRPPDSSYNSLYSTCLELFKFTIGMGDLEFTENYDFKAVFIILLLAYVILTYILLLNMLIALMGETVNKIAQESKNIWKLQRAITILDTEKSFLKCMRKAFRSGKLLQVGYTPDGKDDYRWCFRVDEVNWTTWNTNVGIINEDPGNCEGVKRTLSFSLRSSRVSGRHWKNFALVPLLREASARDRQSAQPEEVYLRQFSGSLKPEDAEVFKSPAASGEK
#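 TRPV1-expressing cells were cultured overnight at 35.5C and loaded with Fluo-8 calcium dye for 40 to 90 min at room temperature. After a 10 s baseline, compound was added and calcium influx was read kinetically for 3 min (ex 480/em 520 nm).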
# TRPML1 ag = agonists of human TRPML1 channel | TRPML1-expressing cells, Ca2+ dye fluorescence, FDSS; host cell line not named in the record; reference of the full effect not given here | activation, % (test concentration not listed) | 410,000 compounds, 0.12% hits; in the data active = activation above about 50%; inconclusive = about 30% to 50%; inactive = below about 30%; also: 0% is about no effect; the text of the record puts the active cut at 80%
#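 Tet-induced TRPML1-DL cells, 1,500 per well, cultured overnight, were loaded with a no-wash Ca2+ dye for 45–90 min. Calcium fluorescence was recorded on the FDSS for 110 s after compound addition, before the EC80 agonist (4 uM 54-4) was added.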
# D2 potentiator = human D2 receptor positive allosteric modulation; 360,000 compounds, 0.23% hits; potentiation, % (no concentration beside the values); AID 624464; P14416; DiscoveRx D2 beta-arrestin cells, luminescence, 90 min; 100% = 57 uM dopamine signal; active = potentiation of 50% or more; inconclusive = 30% to 50%; inactive = 30% or less;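 also: compound concentration not given in the record; tested on top of an EC20 dose of dopamine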
#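 PathHunter beta-arrestin assay in DiscoveRx D2 cells. Compounds were added with an EC20 of dopamine (50 nM final) for 90 min at 37 deg C. Luminescence was read 1 h after detection reagent, with 57 uM dopamine as the EC100 control.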
# CtBP-E1A inh = blocks the CtBP interaction with E1A; AlphaScreen GST-E1A/His-CtBP binding, 1536-well; active compounds read low; control for the full effect not named in the record; activity change, % (test concentration not listed); 340,000 compounds, 0.49% hits; AID 651724; in the data active means activity change below about -65%; inconclusive means about -30% to -65%; inactive means above about -30%; also: % is scaled to controls: 0 for no effect and ±100 for the full control effect
#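 GST-E1A and His-tagged CtBP (125 nM each as 5X stock) were preincubated with pin-transferred compound for 2 h at 37 °C in the dark, then glutathione donor and nickel acceptor beads were added for 1 h before AlphaScreen reading.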
# Six1-Eya2 blk = blocks human Six1 binding to Eya2. Q15475+O00167. AlphaScreen GST-Six1/His-Eya2 binding, biochemical; active compounds read low; control for the full effect not named in the record. activity change, % (concentration not given with the values). 360,000 compounds, 0.56% hits. AID 651725; in the data active = activity change below about -65%; inconclusive = about -30% to -65%; inactive = above about -30%; also: % is scaled to controls: 0 for no effect and ±100 for the full control effect
#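 AlphaScreen luminescence read after one hour at 37 °C in darkness. Pin-transferred compounds met GST-Six1 and His-Eya2 protein (5X stock 250 nM/500 nM) plus glutathione donor and Ni-chelate acceptor beads (5X, 50 ug/mL).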
# TRPML1 blocker = inhibitors of human TRPML1 channel | Q9GZU1 | activity change, negative = inhibition, % (concentration not given with the values) | TRPML1-inducible cells, Ca2+ dye fluorescence, FDSS; active compounds read low; inhibition of EC80 agonist-evoked calcium signal | 390,000 compounds, 0.02% hits; in the data active means activity change below about -50%; inconclusive means about -30% to -50%; inactive means above about -30%;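 also: stimulus is agonist 54-4 at its EC80 concentration; % is scaled to controls: 0 for no effect and ±100 for the full control effect; the text of the record puts the active cut at -80%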
#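 Calcium fluorescence in TRPML1-DL cells induced overnight with Tet: a 110 s read after compound pin addition, then a 110 s antagonist read after challenge with 54-4 at 4 uM final (EC80).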
# An asterisk follows results filed as active; ? = inconclusive; · = no result given.
smiles	TRPV1 PAM	TRPML1 ag	D2 potentiator	CtBP-E1A inh	Six1-Eya2 blk	TRPML1 blocker
Cc1ccc(C(=O)Cn2c(N3CCOCC3)nc3c2c(=O)n(C)c(=O)n3C)cc1	4	-0.5	-13	7	0	36
CCCCCCNC(=O)O[C@H]1Cn2c(=O)n(CCCCCC)c(=O)n2[C@@H]2CN(S(=O)(=O)c3ccc(C)cc3)C[C@]12O	·	2.1	1	1	-1	2
CCOC(=O)c1cc(-c2cc(OC)c(OC)c(OC)c2)nc2c1c(=O)[nH]c(=O)n2Cc1ccccc1	26	-0.1	-10	3	2	-4
O=C(COC(=O)c1ccc([N+](=O)[O-])cc1)Nc1ccc(Cl)cn1	-11	0.0	-12	6	-6	3
CCCOc1ccc(N2CC(C(=O)NCCc3ccc(OC)c(OC)c3)CC2=O)cc1 (configuration not stated)	0	-1.0	1	6	1	0
Cn1c(=O)c2c([nH]c(OCc3ccc(Cl)cc3Cl)[n+]2Cc2ccc(F)cc2)n(C)c1=O	-20	0.1	-6	0	-2	-10
O=c1c2cccnc2n(-c2ccccc2)n1Cc1ccc(Cl)cc1	26	2.3	-6	23	23	20
c1cncc(CN2CCN(c3cc(-c4cnc5ccccc5c4)nc4ccnn34)CC2)c1	·	-0.6	-5	-15	-3	·
CCOC(=O)CCNC(=O)c1ccc2nc(C3CCCCC3)oc2c1	6	-0.9	-2	8	-1	-5
C=CCSc1nnc(NC(=O)CCN2C(=O)C3CC=CCC3C2=O)s1 (configuration not stated)	-7	-0.2	-4	-1	-3	4
CCCc1nc2nc(C)c(NS(=O)(=O)c3ccc(C4CCCCC4)cc3)c(=O)n2[nH]1	16	0.2	-2	4	6	6
O=C(Nc1cnn(Cc2ccc(Cl)cc2Cl)c1)c1cc(-c2cccs2)on1	-34	1.2	11	0	1	26
Cc1nc2c([nH]c3ccccc32)c(=O)n1N	5	-0.7	-3	-1	-7	-8
O=C(N/N=C/c1cccs1)C(=O)N1CCCC1	-2	-0.1	0	0	9	6
Cc1ccc(C(=O)NC(=S)N2CCN(c3cc(C)ccc3C)CC2)cc1	-9	2.7	-16	-8	-14	17
O=C1NCCCC1C(=O)Nc1ccccn1 (configuration not stated)	7	-0.2	-11	3	3	-4
CCc1ccccc1NC(=O)NCc1ccccn1	-2	-0.2	-5	1	11	-24
O=C(c1ccc2c(=O)n(Cc3ccco3)c(=S)[nH]c2c1)N1CCN(c2ccccc2)CC1	·	-0.7	2	-1	4	0
CC1(C(=O)O)CCCN(C(=O)c2ccc(F)cc2Cl)C1 (configuration not stated)	·	0.0	-3	5	7	-14
N#Cc1cnn2c(=O)[nH]cnc12	·	0.3	-8	1	5	45
O=C(Cc1cccs1)Nc1nc2c(ccc3ccccc32)s1	-5	0.0	-12	2	-4	-1
COc1cc(NC(=O)c2ccc(-c3cccc(F)c3)o2)ccc1NC(=O)c1ccccc1Cl	·	-0.3	-3	-15	1	-3
COc1ccc(C(CNC(=O)CCNS(=O)(=O)c2ccc(C)cc2)N2CCOCC2)cc1 (configuration not stated)	2	-0.6	-5	5	0	0
O=C(Nn1cnnc1)c1ccc([N+](=O)[O-])cc1	-1	1.0	1	6	10	-10
COc1ccc2[nH]c(O)c(N=NC(=O)c3ccc(NS(=O)(=O)c4cccs4)cc3)c2c1	0	-0.3	1	-2	?	-8
CCNC(=S)N/N=C/c1ccc(C#N)cc1	3	0.6	4	-16	-11	-1
Cc1scc(C(=O)N2CCN(S(C)(=O)=O)CC2)c1-c1ccccc1	-3	-0.1	-11	6	-1	2
CCOC(=O)c1c(NC(=O)c2cccc(N3C(=O)CCC3=O)c2)sc(C)c1C	7	0.4	-1	-3	2	-13
CN(CP(=O)(O)CCc1ccccc1)S(C)(=O)=O	9	0.3	-4	12	8	7
Cc1cccc(C(=O)NCCN2CCCC2)c1	10	-0.5	2	3	-1	14

# 15 compounds from above, sorted by heavy-atom count, ascending:
smiles	TRPV1 PAM	TRPML1 ag	D2 potentiator	CtBP-E1A inh	Six1-Eya2 blk	TRPML1 blocker
N#Cc1cnn2c(=O)[nH]cnc12	·	0.3	-8	1	5	45
O=C(Nn1cnnc1)c1ccc([N+](=O)[O-])cc1	-1	1.0	1	6	10	-10
CN(CP(=O)(O)CCc1ccccc1)S(C)(=O)=O	9	0.3	-4	12	8	7
CCc1ccccc1NC(=O)NCc1ccccn1	-2	-0.2	-5	1	11	-24
CC1(C(=O)O)CCCN(C(=O)c2ccc(F)cc2Cl)C1 (configuration not stated)	·	0.0	-3	5	7	-14
O=C(COC(=O)c1ccc([N+](=O)[O-])cc1)Nc1ccc(Cl)cn1	-11	0.0	-12	6	-6	3
O=c1c2cccnc2n(-c2ccccc2)n1Cc1ccc(Cl)cc1	26	2.3	-6	23	23	20
Cc1ccc(C(=O)NC(=S)N2CCN(c3cc(C)ccc3C)CC2)cc1	-9	2.7	-16	-8	-14	17
O=C(Nc1cnn(Cc2ccc(Cl)cc2Cl)c1)c1cc(-c2cccs2)on1	-34	1.2	11	0	1	26
CCCc1nc2nc(C)c(NS(=O)(=O)c3ccc(C4CCCCC4)cc3)c(=O)n2[nH]1	16	0.2	-2	4	6	6
COc1ccc2[nH]c(O)c(N=NC(=O)c3ccc(NS(=O)(=O)c4cccs4)cc3)c2c1	0	-0.3	1	-2	?	-8
O=C(c1ccc2c(=O)n(Cc3ccco3)c(=S)[nH]c2c1)N1CCN(c2ccccc2)CC1	·	-0.7	2	-1	4	0
COc1cc(NC(=O)c2ccc(-c3cccc(F)c3)o2)ccc1NC(=O)c1ccccc1Cl	·	-0.3	-3	-15	1	-3
CCOC(=O)c1cc(-c2cc(OC)c(OC)c(OC)c2)nc2c1c(=O)[nH]c(=O)n2Cc1ccccc1	26	-0.1	-10	3	2	-4
CCCCCCNC(=O)O[C@H]1Cn2c(=O)n(CCCCCC)c(=O)n2[C@@H]2CN(S(=O)(=O)c3ccc(C)cc3)C[C@]12O	·	2.1	1	1	-1	2

# (continued)
smiles	TRPV1 PAM	TRPML1 ag	D2 potentiator	CtBP-E1A inh	Six1-Eya2 blk	TRPML1 blocker
N#Cc1ccccc1S(=O)c1ccccc1C(=O)Nc1ccccc1 (configuration not stated)	2	2.4	1	0	2	14
COc1ccc(CNC(=O)c2ccc(CS(=O)Cc3ccc(Cl)cc3)o2)cc1 (configuration not stated)	29	0.5	-9	7	-2	7
COC(=O)C1=CN(Cc2cccs2)C=C(C(=O)OC)C1c1cccc(OC)c1OC	-23	1.4	3	19	8	-8
Cc1cccc2cc(CN(Cc3cccnc3)C(=O)c3ccncc3)c(=O)[nH]c12	25	-1.0	-8	-1	7	3
Cc1cc(Cl)ccc1OCCCC(=O)OCC(=O)Nc1cccc(S(N)(=O)=O)c1	-5	0.6	6	-1	-4	-4
CSc1ccccc1NC(=O)c1ccoc1C	7	-0.1	5	1	0	-1
COC(=O)c1sc2nc[nH]c(=O)c2c1C	0	1.1	-2	?	?	1
O=C(CCSc1ccccc1)Nc1nnc(-c2cccs2)o1	0	-1.2	-11	-3	-20	1
CCn1nc(C)cc1C(=O)NC1CCCc2c1cnn2-c1cc(F)cc(F)c1 (configuration not stated)	-6	1.8	-2	2	0	45
CC(C)(C)S(=O)(=O)/C(C#N)=N/Nc1ccc(S(N)(=O)=O)cc1	1	10	-8	8	6	6
COC(=O)c1cc(NC(=S)Nc2cc(Cl)cc(Cl)c2)cc(C(=O)OC)c1	-1	-0.4	-21	0	-1	-7
C/C(=N\N(Cc1ccccc1)c1ccccc1)c1cccnc1	-10	3.3	-8	0	-13	-12
CCN(CC)S(=O)(=O)c1cccc(C(=O)N/N=C/c2c(C)nn(-c3ccccc3)c2Cl)c1	1	-0.3	1	3	2	5
CN(C(=O)c1ccc(NC(=O)C2CCCN(C(=O)OC(C)(C)C)C2)cc1)C1CCCCC1 (configuration not stated)	·	-0.6	-7	6	-5	21
CCN(CC)CCNC(=O)C1(c2ccccc2)CCCCC1	·	-0.6	-14	3	9	4
O=C(Cc1c[nH]c2ccccc12)NCc1ccc(Cl)cc1Cl	-5	1.4	2	2	-1	10
O=S(=O)(c1ccc(-c2ccccc2)cc1)N1CCCC1	-29	0.9	-3	7	1	-11
Cc1ccc(CNC(=O)c2ccccc2N)cc1	-15	-0.1	3	5	0	3
CC(C)Cn1c(N)c(/C=N/NC(=O)c2ccc(Cl)cc2)c(=O)n(C)c1=O	-5	-0.4	8	22	5	5
O=C(O)c1ccc2c(c1)N(Cc1ccccc1F)C(=O)c1ccccc1S2=O (configuration not stated)	10	0.1	-7	0	9	11
COc1cc([N+](=O)[O-])ccc1NC(=O)Nc1ccc2c(c1)OCCO2	2	0.2	-23	-8	-25	-11
CC1CCN(CC(=O)Nc2cccc(Cl)c2)CC1	1	-0.4	-29	2	3	-3
Cc1[nH][nH]c(=O)c1C(c1ccc(-c2ccc(Cl)cc2)o1)c1c(C)[nH][nH]c1=O	0	5.4	0	-18	1	1
COc1ccc(-n2nc(C(=O)NCC(=O)NCC3CCCO3)c3ccccc3c2=O)cc1 (configuration not stated)	9	1.1	-8	-4	5	7
CCNC(=S)N/N=C(\C)c1ccco1	3	0.7	-23	-11	3	11
O=C(Cc1ccccc1[N+](=O)[O-])OCC(=O)N1CCN(c2ccccc2)CC1	4	0.2	-11	3	-14	-4
CCC(=O)N1CCc2cc(S(=O)(=O)CCC(=O)NCCc3ccc(S(N)(=O)=O)cc3)ccc21	0	0.4	-6	3	-2	-8
Cc1ccc(S(=O)(=O)N2CCN(C(=O)c3cc(C4CC4)nc4c3cnn4C(C)C)CC2)cc1	7	0.6	-1	·	-9	-8
Nc1ccc(S(=O)(=O)Nc2nccc(/C=C/c3ccccc3F)n2)cc1	-1	-0.3	-1	?	-15	23
C[C@H](O)[C@@H]1C(=O)N2CCc3ccc(N4CCN(C)CC4)cc3[C@@H]2C[C@@H]1N(C)C(=O)c1cccnc1	·	-0.3	4	0	0	-18
COc1ccc(NC(=S)Nc2cccc(Cl)c2Cl)cc1OC	0	-0.2	-16	·	3	1
CC(Oc1ccc(Cl)cc1)C(=O)Nc1cccc(S(=O)(=O)N2CCOCC2)c1 (configuration not stated)	-16	0.5	2	-2	-2	7
c1ccc2c(c1)OCC(CNc1ncnc3nc[nH]c13)O2 (configuration not stated)	-14	-0.8	2	5	-4	32
CCN(C(=O)COC(=O)c1cc(-c2ccc(C)o2)nc2ccccc12)C1CCS(=O)(=O)C1 (configuration not stated)	3	2.5	9	9	0	20
CCC(=O)Nc1ccc2c(c1)nc(CCN1CCN(c3ccccc3)CC1)n2C	5	1.5	-9	·	4	8
CC(OC(=O)C1CCCCC1)C(=O)Nc1cccc([N+](=O)[O-])c1 (configuration not stated)	-13	0.9	-3	-1	-3	54
